Lassa entry inh = qHTS for Inhibitors of binding or entry into cells for Lassa Virus; Lassa virus pseudotype entry inhibition, cell reporter; control for the full effect not named in the record; Potency, µM (titrated, usually from 37.9 µM), for inactives: at the highest dose activity change, negative = inhibition, hits mostly inhibitors; 1.2% of 300,000 active; AID 540256, 2011; active means well fitted inhibition curve with a large enough effect; inconclusive means small, poorly fitted or top-dose-only effect, or effect the other way; inactive means flat fitted curve, though single readings scatter; tested in HEK293 cells; also: % is scaled to controls: 0 for no effect and ±100 for the full control effect; nearly all actives have a fitted effect of over 50% in size; luciferase read-out
RE007 growth inh = qHTS Assay for Inhibitors of the HIV-1 protein Vpr | S. pombe RE007 Vpr strain, BacTiter-Glo ATP luminescence, 24 h; control for the full effect not named in the record | Potency, µM (series often up to 92.2 µM), without a hit: at the top dose activity change, negative = less growth | 0.21% of 360,000 active | AID 651644, 2012; active = well fitted falling curve with a large enough effect; inconclusive = small, poorly fitted or top-dose-only effect; inactive = no such curve, though single readings can be large or run the other way;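 also: % is scaled to controls: 0 for no effect and ±100 for the full control effect; nearly all actives have a fitted effect of over 50% in size; the assay follows cell death caused by Vpr and the record does not say whether a fall means rescue or toxicity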
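Fission yeast strain RE007, carrying one chromosomally integrated HIV-1 vpr copy, was seeded at OD 0.01 in PMG+AL medium with 23 nL pinned compound. After 24 h at 30 °C and 99% humidity, viability was read by BacTiter-Glo luminescence.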
2A StopGo = High Throughput Screening for Foot and Mouth Disease Virus Antivirals | Potency, µM (highest dose often 57.9 µM), without a hit: at the top dose signal change, negative = less light | human cells with a luciferase reporter of 2A StopGo recoding; control for the full effect not named in the record | 1.2% of 410,000 active | AID 1159524, 2015; active = well fitted falling curve with a large enough effect; inconclusive = small, poorly fitted or top-dose-only effect; inactive = no such curve, though single readings can be large or run the other way; tested in HEK293T cells; also: % is scaled to controls: 0 for no effect and ±100 for the full control effect; nearly all actives have a fitted effect of over 45% in size; luciferase light after 4 h
SARS PLP yeast = qHTS of Yeast-based Assay for SARS-CoV PLP. S. cerevisiae expressing SARS-CoV PLpro, growth rescue; control for the full effect not named in the record. Potency, µM (highest dose often 32.9 µM), without a hit: at the highest dose activity, positive = growth rescue. 0.19% of 330,000 active; active means well fitted rising curve with a large enough effect; inconclusive means small, poorly fitted or top-dose-only effect; inactive means no such curve, though single readings can be large or run the other way; also: 0% is about no effect; nearly all actives have a fitted effect of over 55% in size; growth read by luminescence after 48 h
MARV entry inh = qHTS for inhibitors of binding or entry into cells for Marburg Virus; AID 540276, 2011; Marburg virus pseudotyped entry inhibition, cell reporter; control for the full effect not named in the record; about a third of the inactives were read at about 46 µM; 1.8% of 300,000 active; Potency, µM (highest dose often 37.8 µM), for inactives: at the top dose activity change, negative = inhibition, most hits filed as inhibitors; active = well fitted inhibition curve with a large enough effect; inconclusive = small, poorly fitted or top-dose-only effect, or effect the other way; inactive = flat fitted curve, though single readings scatter; tested in HEK293 cells; about a fifth of its hits are not listed in these tables; also: % is scaled to controls: 0 for no effect and ±100 for the full control effect; luciferase read-out
Cruzain inh noDet = qHTS Assay for Promiscuous and Specific Inhibitors of Cruzain (without detergent); Cruzipain (Trypanosoma cruzi), P25779; 2.3% of 200,000 active; Potency, µM, for the others: max response, negative = inhibition, usual class: inhibitors; purified cruzain, Z-FR-AMC fluorescence, no detergent;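 also: plate controls were enzyme without inhibitor for no effect and buffer without enzyme for full effect; nearly all actives have a fitted effect of over 40% in size; top concentration of the series not given in the record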
Target sequence (P25779 123-467 limits assumed): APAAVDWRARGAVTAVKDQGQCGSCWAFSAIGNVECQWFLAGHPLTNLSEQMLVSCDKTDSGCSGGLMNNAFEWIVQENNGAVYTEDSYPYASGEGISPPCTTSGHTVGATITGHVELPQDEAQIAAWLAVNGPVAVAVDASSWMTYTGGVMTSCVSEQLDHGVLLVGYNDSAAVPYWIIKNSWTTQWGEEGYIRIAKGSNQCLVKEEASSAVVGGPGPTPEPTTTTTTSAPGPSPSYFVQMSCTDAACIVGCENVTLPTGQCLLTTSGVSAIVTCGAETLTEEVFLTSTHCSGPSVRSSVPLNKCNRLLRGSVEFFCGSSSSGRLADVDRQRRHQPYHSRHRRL
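Purified cruzain at 1.5 nM, pre-incubated 15 min with compound at room temperature in 100 mM sodium acetate pH 5.5, 5 mM DTT, 0.00005% Triton X-100. Reaction started with 2 uM Z-FR-AMC; AMC fluorescence increase over 60 s gives rate.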
Cruzain Triton = qHTS Assay for Promiscuous and Specific Inhibitors of Cruzain (with detergent); purified cruzain, Z-FR-AMC fluorescence, 0.01% Triton; Potency, µM, for inactives: max response, negative = inhibition, most hits filed as inhibitors; 0.43% of 200,000 active; AID 1478, 2009;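 also: plate controls were neutral wells for no effect and buffer without enzyme for full effect; nearly all actives have a fitted effect of over 40% in size; top concentration of the series not given in the record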
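Detergent-containing run (0.01% Triton X-100) in acetate buffer pH 5.5 with 5 mM DTT: enzyme at 1.5 nM final, 15 min compound preincubation at room temperature, then 2 uM Z-FR-AMC substrate. Activity taken as 60 s fluorescence increase at 360/450 nm.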
NS1 inh = qHTS Assay for Inhibitors of Influenza NS1 Protein Function; Potency, µM (highest dose often 46.1 µM), for inactives: at the highest dose activity, positive = more growth; AID 2326, 2010; 0.4% of 270,000 active; S. cerevisiae slowed by influenza A NS1, growth recovery by OD600; active means well fitted rising curve with a large enough effect; inconclusive means small, poorly fitted or top-dose-only effect; inactive means no such curve, though single readings can be large or run the other way; also: nearly all actives have a fitted effect of over 50% in size
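S. cerevisiae expressing influenza A NS1, grown in glucose, washed, then diluted 1:100 into pH 6.0 -URA galactose medium with 23 nl compound. Growth recovery read as OD600; NS1-free strain serves as control.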
* hit, by the source's call; u = inconclusive; x = not tested or not shown; & = joins results of further samples; [ ] = dose if it differs, or a comment. Unless noted, calls follow the shape of the dose curve; as a rule, active = well fitted curve in the direction sought with a large enough effect; inconclusive = small, poorly fitted or top-dose-only effect, or another doubt; inactive = no such curve, though single readings can be large; an effect the other way counts as inactive or inconclusive. Potency is read from the fitted curve at half-maximal effect.

Structure | Lassa entry inh | RE007 growth inh | 2A StopGo | SARS PLP yeast | MARV entry inh | Cruzain inh noDet | Cruzain Triton | NS1 inh
C#CCOCCOCCOCCNc1nc(N2CCN(C(=O)[C@H]([C@@H](C)O)n3cc(CCCCN)nn3)CC2)nc(N2CCN(C(=O)[C@H]([C@@H](C)CC)n3cc(CCCN=C(N)N)nn3)CC2)n1 | 24.0% | -9.9% | -9.6% | 4.9% | 10.4% | -3.9% | -17.1% | 12.2%
CCn1c2ccccc2c2cc(NC(=O)CSc3nnc(-c4ccc(OC)c(OC)c4)n3N)ccc21 | -0.6% | -7.7%[3.69 µM] | 3.6% | -23.4% | u | 29.9% | -1.0% | -1.4%
CCOC(=O)C1(C)C=C(Nc2cccc(C)c2)C(=O)N1c1ccccc1 (stereo not given) | -5.0%[46.1 µM] | x | -17.9% | x | 8.9%[46.1 µM] | -17.5% | -8.2% | x
CCn1c(=N)c(C(=O)NC)cc2c(=O)n3cccc(C)c3nc21 | -10.9% | -12.4% | -17.0% | -0.4% | -10.7% | u | 14.1µM* | 3.7%
O=S(=O)(Oc1ccc(C(=S)N2CCOCC2)cc1)c1ccc(Cl)cc1 | u | -3.1% | -4.8% | -7.1% | 14.5% | x | x | -32.9%
Cc1cccc(N2CCN(C(=O)c3ccc4c(c3)N(Cc3cccc(Cl)c3)C(=O)c3ccccc3S4=O)CC2)c1C (stereo not given) | -14.5%[46.1 µM] | x | -14.3% | x | x | -27.9% | -0.3% | x
C=CCn1c(=O)c(C(=O)NCc2ccccc2)c(O)c2ccccc21 | x | -5.1% | 10.3% | u | x | x | x | -35.2%
COc1ccc(-c2cc(C)no2)cc1S(=O)(=O)NCCCN1CCCCCC1 | x | -11.3% | 12.3% | 1.3% | x | x | x | -5.3%
COc1ccc(CCNC(=O)CSc2nc(O)c(C(C)C)c(=O)[nH]2)cc1OC | 3.4% | 4.2% | x | 5.6% | -12.1% | -14.5% | -1.6% | -2.2%
CCN(C(=O)COC(=O)c1ccc(OC)c(S(=O)(=O)N2CCCc3ccccc32)c1)C1CCS(=O)(=O)C1 (stereo not given) | x | 5.1% | 50.3%[activator] | -1.8% | x | x | x | 0.1%
Cc1ccoc1C(=O)N1CCCCC1C(=O)O (stereo not given) | -13.1% | 27.1% | -12.7% | -1.6% | 1.6%[46.1 µM] | x | x | x
Cc1ccc(Cl)c2c1N[C@@H](c1ccc(C(=O)O)cc1)[C@H]1CC=C[C@@H]21 | -1.8%[46.1 µM] | x | -20.4% | x | 7.8%[46.1 µM] | u | u | x
Fc1cccc(-n2c(-c3ccco3)nc3nc4ccccc4nc32)c1 | 4.1% | -2.5% | 11.6% | -3.0% | -12.1% | -13.7% | 12.6% | u
COc1ccc(/C(O)=C2\C(=O)C(=O)N(CCN(C)C)C2c2cc(OC)c(OC)c(OC)c2)c(C)c1 (stereo not given) | 2.9% | -5.2% | -7.5% | -5.5% | -9.8%&-9.8% | -3.2% | -5.2% | u
CCC(=O)Nc1ccc(S(=O)(=O)Nc2cccc(C)c2)cc1OC | 1.6% | -2.4% | 87.7%[activator] | 3.0% | 4.6% | 1.9% | 0.0% | -1.5%
CC(Oc1ncnc2ccccc12)C(=O)Nc1cccc(S(=O)(=O)N2CCOCC2)c1 (stereo not given) | -0.8% | 2.4% | -6.1% | 9.4% | 5.3% | -15.0% | -0.4% | 14.4%
CCc1nc2nc(C)c(NS(=O)(=O)c3ccc(C)c(C)c3)c(=O)n2[nH]1 | 18.8% | -0.3% | -7.3% | 0.7% | 14.9%[46.1 µM] | x | x | -0.3%
O=C1OCCN1C(=O)[C@H]1[C@H](c2ccc(Cl)cc2)C(c2ccc(F)cc2)=NN1c1ccc(Br)cc1 | x | 1.7% | -27.9% | -13.7% | x | 11.2µM* | -12.5% | x
CN(C)c1ccc(C=C2C(=O)NC(=S)NC2=O)cc1[N+](=O)[O-] | 12.2% | -6.6% | 39.8µM* | 2.4% | 27.4% | x | x | 4.6%
O=C(Nc1ccccc1)N1CCN(Cc2ccc3c(c2)OCO3)CC1 | x | -6.1% | -18.7% | -0.2% | 4.5% | -3.1% | 0.2% | -5.3%
COc1cc2c(cc1OC)C(COc1ccc(F)cc1)N(C(=O)c1ccco1)CC2 (stereo not given) | 1.6% | 6.1% | u | -1.7% | u | 28.1% | 0.7% | -72.2%
COc1ccc(OC)c(-n2c(=S)[nH]c3c(sc(=S)n3-c3ccccc3)c2=O)c1 | -0.7%[46.1 µM] | 0.1% | -15.1% | -3.4% | -20.2%[46.1 µM] | x | x | x
O=C(COC(=O)c1ccc(N2CCCC2=O)cc1)c1ccccc1 | 6.4% | 4.9% | 27.2% | 0.9% | 17.5%[46.1 µM] | x | x | 5.8%
O=C(Nc1ccccc1C(=O)NCC1CCCO1)c1ccc(Cl)cc1Cl (stereo not given) | 1.5% | -3.8% | -29.4% | -11.4% | u | 3.8% | -0.1% | -9.2%
Cc1cc(C)c2oc(-c3cccc(NC(=O)COc4ccc([N+](=O)[O-])cc4)c3)nc2c1 | u | x | u | x | 6.4%[46.1 µM] | 0.8% | 1.0% | x
Cc1cc(/C=C2/NC(=O)NC2=O)c(C)n1-c1ccncc1 | x | 9.6% | 14.7% | -0.6% | 5.3%[46.1 µM] | x | x | x
CCOC(=O)CSc1nnc(CNC(=O)c2ccc(OC)cc2)n1C1CCCCC1 | 10.5% | 4.6% | 6.0% | 0.7% | 0.5% | 18.2% | 2.3% | 1.6%
CC1CN=C(c2ccccc2)O1 (stereo not given) | 7.4%[46.1 µM] | 9.4% | -9.3% | x | 4.1%[46.1 µM] | x | x | x
CCc1ccc(NS(=O)(=O)c2ccc3[nH]c4c(c3c2)CCCCCC4)cc1 | 2.3%[46.1 µM] | x | 74.3%[activator] | x | x | -27.6% | -5.9% | x
COc1ccc(C(=O)NCCSc2ccccc2)cc1OC | 12.6% | 24.0% | 45.3%[activator] | -0.3% | 0.0%[46.1 µM] | x | x | -4.9%
COc1ccc(NC(=O)Cn2c(=O)sc3ccccc32)cc1 | -19.4% | 38.9% | 0.0% | 5.7% | 6.4% | -15.7% | -1.5% | -2.9%
COc1ccc(-n2nc(C(=O)NCC(=O)N3CCC(C(N)=O)CC3)c3ccccc3c2=O)cc1 | -15.3%[46.1 µM] | -18.3% | -4.4% | 0.8% | -6.3%[46.1 µM] | x | x | 9.3%
CCOC(=O)C1CCCN(C(=O)c2cc(COc3ccc(C)nc3)on2)C1 (stereo not given) | -25.6% | -12.3% | -4.3% | -1.0% | -13.7% | x | x | -7.2%
CC(C)CNc1nc(NC(C)(C)C)nc(Oc2ccc(=O)[nH]n2)n1 | 8.7%[46.1 µM] | 2.6% | 8.9% | -0.4% | u | x | x | x
CN=C1SC(CC(=O)Nc2ccccc2F)C(=O)N1C (stereo not given) | x | -9.4% | -5.9% | 7.2% | x | -3.1% | -1.9% | -10.3%
O=C(Cn1c(=O)oc2ccccc21)Nc1ccc(C(=O)O)cc1 | 17.5%[46.1 µM] | x | 7.2% | x | -3.5%[46.1 µM] | 0.7% | -0.3% | x
COCCCNC(=O)/C=C/c1ccc(Cl)cc1Cl | u | -22.4% | 53.1%[activator] | 4.0% | 4.8% | -5.4% | -0.9% | -52.4%
CCOCCc1nn2c(=O)cc(COC(=O)c3ccc(NC(=O)C(C)(C)C)cc3)nc2s1 | 14.2%[46.1 µM] | x | u | x | x | 6.8% | -0.4% | x
Cc1ccc(C)c(CN2CCCN(Cc3ccccc3C)S2(=O)=O)c1 | -3.3%[46.1 µM] | x | 11.0% | x | x | 8.2% | -6.9% | x
COCCn1c(C)cc(C(=O)CSc2nc3ccccc3o2)c1C | u | 13.8% | -45.7% | -2.5% | u | 4.1% | -1.3% | -31.1%
O=C(CSc1ccc2nnc(-c3ccccn3)n2n1)Nc1ccc2c(c1)OCCO2 | x | 5.5% | -20.2% | 7.0% | x | -7.6% | -2.3% | 5.4%
CCCN(CCO)CCCc1ccccc1 | 2.1% | 4.1% | -14.3% | -0.9% | 9.2% | -0.7% | 1.8% | 6.6%
CN1CC(=O)N(CC(=O)N2CCC(Cc3ccccc3)CC2)C1=O | -25.7%[46.1 µM] | 13.9% | -19.4% | 1.2% | 6.3%[46.1 µM] | x | x | x
O=C(CCSc1ccccc1)NNC(=O)c1ccccc1F | -11.3% | 4.2% | 22.2% | -2.3% | -0.7%[46.1 µM] | x | x | x
COc1ccc(-c2nn(-c3ccccc3)cc2CO)cc1 | 18.5% | u | 11.9% | -6.6% | u | 3.0% | -0.7% | -56.2%
Cc1cccc(-c2nc(C)cc(=O)[nH]2)c1 | -0.7% | 0.3% | -3.4% | -0.1% | 6.8%[46.1 µM] | x | x | -4.4%
COc1ccc(CCNC(=O)c2cc(=O)c3cc(C)ccc3o2)cc1OC | x | -9.7% | u | 1.6% | x | x | x | -3.3%
CC(C)(C)C1COc2ccccc2N1C(=O)c1ccccc1Cl (stereo not given) | x | -13.8% | u | -4.1% | x | x | x | -9.8%
O=C(CSc1nncn1-c1ccccc1)Nc1cccc(S(=O)(=O)N2CCCCC2)c1 | 0.6% | x | x | 10.7% | -2.1% | -15.6% | 8.5% | 8.6%
CSc1ccccc1NC(=O)c1cc(-c2ccco2)on1 | -0.5% | -4.0% | 18.6% | -21.9% | 12.6%[46.1 µM] | x | x | -26.9%
COc1ccccc1-c1cc(C(=O)N/N=C/C=C/c2ccccc2[N+](=O)[O-])c2ccccc2n1 | -10.0% | -16.8% | -29.3% | 2.1% | u | -70.2% | -1.6% | 20.7%
